# Source: PubChem BioAssay (Vanderbilt University)
# GIRK2 activ = activators of human GIRK2 potassium channels; G protein-activated inward rectifier potassium channel 2 (Homo sapiens), P48051; HEK293-GIRK2 thallium flux, Thallos fluorescence; calls only for hits at 25 µM; 63,000 tested, 0.05% active;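 active means among the strongest 0.2% of first-round signals and kept after retests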;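 further: first round at about 10 µM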
# Target sequence (P48051 whole entry, looked up): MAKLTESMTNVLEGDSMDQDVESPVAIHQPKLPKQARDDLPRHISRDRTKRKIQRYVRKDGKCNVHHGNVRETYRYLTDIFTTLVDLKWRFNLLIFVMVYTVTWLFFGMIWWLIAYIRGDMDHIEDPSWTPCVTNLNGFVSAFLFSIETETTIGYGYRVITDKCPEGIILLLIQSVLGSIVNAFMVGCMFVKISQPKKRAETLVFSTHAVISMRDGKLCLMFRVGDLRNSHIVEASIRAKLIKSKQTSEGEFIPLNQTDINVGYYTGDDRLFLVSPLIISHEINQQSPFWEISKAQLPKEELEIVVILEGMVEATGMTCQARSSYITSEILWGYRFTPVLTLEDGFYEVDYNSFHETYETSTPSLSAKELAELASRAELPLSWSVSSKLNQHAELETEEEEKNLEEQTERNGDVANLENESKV
# Calls only; i = inactive.
structure	GIRK2 activ
COc1ccc(N2CC(C)Cn3c2nc2c3c(=O)n(Cc3ccccc3)c(=O)n2C)cc1 (centres undefined)	i
CCCCOc1ccc(C(=O)N2CC(c3nc(-c4ccc[nH]c4=O)no3)C2)cc1	i
COc1cc(CNc2cnc3cc(S(=O)(=O)N4CCCCC4)ccc3n2)cc(OC)c1	i
O=C(Nc1ccc(N2CCCCC2=O)cc1)c1cccc2ccccc12	i
COC(=O)c1c(NCc2cccc(C(F)(F)F)c2)c2ccccc2[nH]c1=O	i
COc1ccc(-c2csc(NC(=O)CCCS(=O)(=O)Cc3ccccc3)n2)cc1C	i
Cn1ccnc1SCC1CCN(C(=O)Nc2cccc(C(F)(F)F)c2)CC1	i
CC1CCN(S(=O)(=O)c2cccn(CC(=O)NCc3ccccc3)c2=O)CC1	i
O=c1[nH]cc(F)c(=O)[nH]1	i
Cn1nnn(-c2ccc(NC(=O)c3ccccc3Cl)cc2)c1=O	i

# Random excerpt: 4 compounds from above.
structure	GIRK2 activ
COc1ccc(-c2csc(NC(=O)CCCS(=O)(=O)Cc3ccccc3)n2)cc1C	i
CC1CCN(S(=O)(=O)c2cccn(CC(=O)NCc3ccccc3)c2=O)CC1	i
Cn1ccnc1SCC1CCN(C(=O)Nc2cccc(C(F)(F)F)c2)CC1	i
COc1ccc(N2CC(C)Cn3c2nc2c3c(=O)n(Cc3ccccc3)c(=O)n2C)cc1 (centres undefined)	i

# Additional entries follow:
structure	GIRK2 activ
CCOC(=O)CNC(=O)CSc1ncccc1-c1nc2ccccc2[nH]1	i
Cc1cc(O)c2c(CN3CCN(c4ccccc4)CC3)cc(=O)oc2c1	i
COc1ccccc1/C=C1\SC(=O)N(c2ccccc2)C1=O	i
COc1ccc(C)cc1S(=O)(=O)N(C)c1ccc(Oc2ccc(C)nn2)cc1	i
Cc1nc2ccc(NC(=O)COc3ccc(F)cc3F)cc2c(=O)n1-c1ccc(F)cc1	i
COc1ccc(Cl)cc1NC(=O)CCN1C(=O)c2ccccc2S1(=O)=O	i
COc1cccc(CSc2nc(CC(=O)Nc3nc(C)cs3)cc(=O)[nH]2)c1	i
CCOC(=O)N1CCN(C(=O)C2CCCN(c3ccc(-c4ccc(F)cc4)nn3)C2)CC1 (centres undefined)	i
CCc1nc2sc(C(c3ccc(F)cc3)N3CCN(Cc4ccccc4)CC3)c(O)n2n1 (centres undefined)	i
COc1ccc(CNC(=O)Cn2nc3c(Oc4cccc(C)c4C)nccn3c2=O)cc1	i

structure	GIRK2 activ
COc1ccc(C(=O)COc2cc(=O)n3ccccc3n2)cc1OC	i
Cc1nc(-c2ccc(N3CCN(C(=O)c4ccc(=O)n(C)n4)CC3)nc2)no1	i
CCOC(=O)Cn1c(=O)c2c(nc3n(-c4ccccc4F)c(C)c(C)n23)n(C)c1=O	i
CC1CCN(c2oc(-c3ccc(S(=O)(=O)N4CCCCC4)cc3)nc2C#N)CC1	i
COc1ccc(-c2nc(-c3cn(CC(=O)Nc4cccc(C)c4)cn3)no2)cc1	i
COc1ccc(-c2nc(CCNS(=O)(=O)c3ccc(Cl)s3)cs2)cc1OC	i
Cc1cc(F)ccc1S(=O)(=O)NCCC(O)c1ccc2c(c1)OCO2 (centres undefined)	i
Cc1cc(C(=O)N2CCC(Oc3cnccn3)CC2)c(C)o1	i
CCOc1ccc(-c2cc3c(=O)n(CC(=O)Nc4cccc(C(F)(F)F)c4)ccn3n2)cc1	i
O=C(N1CCC2(CC1)OCCS2)C1(c2ccc(Cl)cc2)CCCC1	i

# Exported as labelled records: part of the list above.
> COc1ccc(-c2nc(-c3cn(CC(=O)Nc4cccc(C)c4)cn3)no2)cc1
  GIRK2 activ: i

> COc1ccc(-c2nc(CCNS(=O)(=O)c3ccc(Cl)s3)cs2)cc1OC
  GIRK2 activ: i

# The main list resumes, starting 2 compounds before the break.
structure	GIRK2 activ
CCOc1ccc(-c2cc3c(=O)n(CC(=O)Nc4cccc(C(F)(F)F)c4)ccn3n2)cc1	i
O=C(N1CCC2(CC1)OCCS2)C1(c2ccc(Cl)cc2)CCCC1	i
COc1cccc(N2CC(C(=O)N3CCC(CSc4nc(C)cs4)CC3)CC2=O)c1 (centres undefined)	i
COc1ccc(C(CNS(=O)(=O)c2ccc(C)cc2)N2CCN(C)CC2)cc1 (centres undefined)	i
COc1cccc2c1C(=O)c1c(O)c3c(c(O)c1C2=O)C[C@@](O)(C(=O)CO)C[C@@H]3O[C@H]1C[C@H](N)[C@H](O)[C@H](C)O1	i
COc1cc(Br)cc2cc(C(=O)OCC(=O)c3ccc(Cl)cc3)c(=O)oc12	i
COc1cc(CCN2C(=O)c3cccc4cccc(c34)C2=O)c(S(=O)(=O)N2CCN(Cc3ccccc3)CC2)cc1OC	i
COc1cc(S(=O)(=O)N2CCN=C2c2ccccc2)c(OC)cc1Cl	i
Cc1nc(-c2ccco2)sc1CNC(=O)c1csc(-c2ccccc2)n1	i
CC(C)CN(CC(C)C)CC(O)COC12CC3CC(CC(C3)C1)C2 (centres undefined)	i
Cc1cc(N2CCN(c3ccccn3)CC2)n2nc(-c3cccc(Cl)c3)c(C)c2n1	i
CN1CCN(c2cc(NC(=O)Nc3ccc(OC(F)(F)F)cc3)ncn2)CC1	i

structure	GIRK2 activ
Nc1[nH]c(N=NC(=O)c2ccncc2)c2ccccc12	i
CCOC(=O)COc1ccc(C23CC4CC(CC(C4)C2)C3)cc1	i
O=S(=O)(c1cc(F)cc(F)c1)N1CCC(Oc2ccc(Cl)cn2)CC1	i
CCCNC(=O)C1CCC(Cn2c(=O)c3sccc3n(Cc3ccc(F)cc3Cl)c2=O)CC1 (centres undefined)	i
OC(COc1ccc(C23CC4CC(CC(C4)C2)C3)cc1)CN1CCCCC1 (centres undefined)	i
CNc1nn(CC(=O)NCc2ccc(Cl)cc2)c(N)c1-c1nc(-c2ccc(Cl)cc2)no1	i
COc1ccc(CCNC(=O)Nc2ccc3c(c2)CCCN3C(=O)c2ccccc2)cc1	i
CC1Oc2ccccc2OC1C(=O)N1CCC(Oc2ncccn2)CC1 (centres undefined)	i
O=C(NCC(O)C1CCCCC1)c1cccc(F)c1 (centres undefined)	i
CCC(C(=O)Nc1onc2c1CSC2)c1ccccc1 (centres undefined)	i

structure	GIRK2 activ
CC(C)CN(C1CCS(=O)(=O)C1)S(=O)(=O)c1ccc(Br)cc1 (centres undefined)	i
COC(=O)c1ccc(S(=O)(=O)N2CCC(CSc3ccccn3)CC2)cc1	i
CCn1cnc2c(-c3ccccc3)cn(CC(=O)Nc3ccccc3C(F)(F)F)c2c1=O	i
COc1ccc(CNC(=O)CSC2=NNC3C4CC(c5ccc(F)cc5)NN4C=CN23)cc1 (centres undefined)	i
COc1ccc(OCc2noc(CNC(=O)CSc3nc4ccccc4o3)n2)cc1	i
COC(=O)c1cc(OCc2cccc(OC)c2)c2cc(OC)ccc2n1	i
COc1ccc(OC)c2sc(N(CCCN(C)C)C(=O)c3ccnn3C)nc12	i
O=C(NCC1(O)CCCC1)c1cc(-c2ccco2)on1	i
CCOc1ccc(S(=O)(=O)NCC2(c3cccs3)CCOCC2)cc1F	i
COc1ccc(Cl)cc1NC(=O)N1CC(c2nc(C3CC3)no2)C1	i

structure	GIRK2 activ
Cc1nccn1-c1ncc(NC(=O)C(C)Oc2ccccc2)cn1 (centres undefined)	i
Clc1nnnn1-c1ccccc1	i
COc1ccc(C(=O)NC2CCN(C(=O)c3cn(-c4ccc(C)c(C)c4)nn3)CC2)cc1	i
CCOC(=O)N1CCC(NC(=O)CN(C)c2nc3c(Cl)cccc3s2)CC1	i
CC(C)=CCC[C@]1(C)C=Cc2c(c(C)cc3c2[nH]c2ccccc23)O1	i
CCOc1ccc(S(=O)(=O)Nc2ccc3c(c2)CCC(=O)N3Cc2ccccc2)cc1	i
O=S(=O)(c1cccs1)N1CCN(c2cc(-c3ccccc3)ncn2)CC1	i
CCNc1c([N+](=O)[O-])c(=O)n(-c2ccccc2)c2ccccc12	i
O=C(CN1C(=O)CCC1=O)N1CCC(Oc2ccccn2)CC1	i
O=C(Cc1ccccc1)Nc1ccc(SC(F)F)cc1	i

structure	GIRK2 activ
CCOc1ccc2ccccc2c1C(=O)NCCC(O)c1cc(C)oc1C (centres undefined)	i
O=C(NCCNc1ccc(Nc2ccncc2)nn1)Nc1cccc(C(F)(F)F)c1	i
O=C(NCCn1nc(C2CC2)n(-c2ccccc2)c1=O)c1nc2ccccc2s1	i
CNc1ncnc2c1oc1ccccc12	i
COc1ccc(NC(=O)C(=O)NCC(c2cccn2C)N2CCCC2)cc1OC (centres undefined)	i
CCN(CC)CCN1C(=O)c2oc3cc(C)c(Cl)cc3c(=O)c2C1c1cccc(F)c1 (centres undefined)	i
Cc1cc(NC(=O)CSc2nnc(N3CCN(C(=O)C(C)Oc4ccccc4)CC3)s2)no1 (centres undefined)	i
Cc1ccc(CNc2nc3c(c(=O)n(C)c(=O)n3C)n2CC(N)=O)cc1	i
COc1ccc(CCn2c(C)cn3c4c(=O)n(CCN5CCCCC5)c(=O)n(C)c4nc23)cc1OC	i
COc1ccc(-n2c(C)c(C)n3c4c(=O)n(CCN5CCOCC5)c(=O)n(C)c4nc23)cc1	i

structure	GIRK2 activ
O=C(c1ccco1)N1CCN(c2cc(Nc3ccccn3)ncn2)CC1	i
CC/C=C\C/C=C\C/C=C\C/C=C\C/C=C\C/C=C\CCC(=O)O[C@H](COCCCCCCCCCCCCCCCC)COP(=O)([O-])OCC[N+](C)(C)C	i
COC(=O)c1ccc(S(=O)(=O)N2CC(c3nc(-c4ccc[nH]c4=O)no3)C2)cc1	i
COc1ccc(N2CCN(C(CNC(=O)C(=O)NCCc3ccc(S(N)(=O)=O)cc3)c3ccco3)CC2)cc1 (centres undefined)	i
COc1ccccc1-c1ccc(N2CCCC(C(=O)Nc3nc(C)cs3)C2)nn1 (centres undefined)	i
O=C(c1cc(-c2cccs2)[nH]n1)N1CCC(Oc2ncccc2Cl)CC1	i
CCNS(=O)(=O)c1cccnc1Nc1cccc(Br)c1	i
COc1ccc(-n2ccn(CC(=O)Nc3ccc(Br)cc3)c(=O)c2=O)cc1	i
Cc1cc(C)n(CC2CCN(S(=O)(=O)c3cccc(Cl)c3C)CC2)n1	i
CC(C)S(=O)(=O)c1cccc(-c2nnc(NC(=O)c3cnc4ccccc4n3)o2)c1	i

structure	GIRK2 activ
Cc1nc(-c2ccccc2Cl)sc1CNS(=O)(=O)c1ccc2c(c1)OCCO2	i
O=S(=O)(NCCC(O)c1ccc2c(c1)OCO2)c1ccc(Cl)s1 (centres undefined)	i
COc1ccc(-c2nn3c(N4CCOCC4)cc(C)nc3c2C)cc1OC	i
O=C(NCCC1=CCCCC1)C(=O)NCCC(O)c1ccoc1 (centres undefined)	i
COc1ccc(-c2cc(=O)n(CC(=O)Nc3cc(Cl)ccc3C)cn2)cc1	i
O=C1NC(=NCCc2cccc(F)c2)S/C1=C\c1ccc2ncccc2c1	i
Cc1cn2c3c(=O)n(CCCO)c(=O)n(C)c3nc2n1CCCO	i
O=C(Cn1nc(-c2ccco2)ccc1=O)Nc1cc(N2CCCC2)ncn1	i
COc1nn(C)cc1C(=O)N1CCCC(c2nnc(-c3cccs3)o2)C1 (centres undefined)	i
Cc1nn(C)c(C)c1S(=O)(=O)NCC1(c2ccc(F)cc2)CC1	i

structure	GIRK2 activ
NS(=O)(=O)c1ccc(CCNC(=O)c2csc(-c3cc4ccccc4[nH]3)n2)cc1	i
CCOc1ccc(-c2csc(-c3nnn(-c4ccc(F)cc4)c3N)n2)cc1	i
O=S(=O)(NCC1(c2cccs2)CCOCC1)c1cccc(F)c1	i
O=C(Cc1noc2ccccc12)NCC#CCOc1cccc(C(F)(F)F)c1	i
CC(=O)Cn1c(=O)c2c(nc3n(-c4ccc(C)cc4)c(C)c(C)n23)n(C)c1=O	i
C=CCN1CCN(C(=O)c2snc3c(=O)n(CCCC)c(=O)[nH]c23)CC1	i
COCCn1c(=O)c2c(nc3n(-c4cccc(C)c4)c(C)c(C)n23)n(C)c1=O	i
CCCn1c(=O)c2sccc2n2c(CCCC(=O)NCc3ccc4c(c3)OCO4)nnc12	i
Cc1nc2cc(NC(=O)CNS(=O)(=O)c3ccc(C(C)(C)C)cc3)ccc2s1	i
O=C(NCC1CCCO1)c1ccc(-n2cccn2)nn1 (centres undefined)	i

structure	GIRK2 activ
CC1CCc2c(sc3nc(CCC(=O)NCCN4CCOCC4)[nH]c(=O)c23)C1 (centres undefined)	i
Cc1c(C(=O)NC2CCCCC2)cnn1-c1cc(-c2nc(C3CC3)no2)ccn1	i
CS(=O)(=O)N1CCC(C(=O)NCC2(c3ccccc3)CCOCC2)CC1	i
COCC1CCCN(CC(=O)Nc2ccc(C(F)(F)F)cc2)C1 (centres undefined)	i
O=C(Cn1c(=O)n(-c2ccc(F)cc2)c(=O)c2ccccc21)NCC1CCCO1 (centres undefined)	i
CCOc1cccc2cc(C(=O)Nc3c(CC)cccc3CC)c(=O)oc12	i
CC(C)CNC(=O)C1CCN(c2ncccc2S(=O)(=O)N2CCOCC2)CC1	i
O=C(CS(=O)(=O)Cc1ccccc1)N(CC1CCCO1)c1nc2c(F)cc(F)cc2s1 (centres undefined)	i
O=S(=O)(NCC#CCOc1ccc2c(c1)OCO2)c1ccc(Cl)s1	i
COc1ccc(/C=C/C(=O)Nc2nc(CN3CCc4ccccc4C3)cs2)cc1OC	i

structure	GIRK2 activ
COC(=O)Cn1c(=O)c2c(nc(N3CCOCC3)n2C)n(C)c1=O	i
COc1ccc(NC(=O)Cn2c(-c3cccnc3)nc3ccccc32)c(OC)c1	i
COc1ccc(C(=O)N(CCCn2ccnc2)c2nc3c(C)cccc3s2)cc1OC	i
COc1ccc(NC(=O)CCc2nc3sc4c(c3c(=O)[nH]2)CCCCC4)cc1Cl	i
COC(=O)Cn1c(=O)c2c(nc3n(-c4ccc(C)cc4)c(C)c(C)n23)n(C)c1=O	i

# The list is partial; rates above refer to the full screens.
